RecA intein inh: Mtb RecA intein splicing inhibition; AID 2221; P9WHJ3; hit rate 0.75% among 290,000; inhibition, %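 (about 9 µM by stock and volumes)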; cell-free RecA intein splicing, fluorescence; in the data active = inhibition above about 30%; inconclusive = no clear call, values can overlap the other calls;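 note: 0% = vehicle wells and 100% = reference inhibitor control wells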
Target sequence (P9WHJ3 whole entry, looked up): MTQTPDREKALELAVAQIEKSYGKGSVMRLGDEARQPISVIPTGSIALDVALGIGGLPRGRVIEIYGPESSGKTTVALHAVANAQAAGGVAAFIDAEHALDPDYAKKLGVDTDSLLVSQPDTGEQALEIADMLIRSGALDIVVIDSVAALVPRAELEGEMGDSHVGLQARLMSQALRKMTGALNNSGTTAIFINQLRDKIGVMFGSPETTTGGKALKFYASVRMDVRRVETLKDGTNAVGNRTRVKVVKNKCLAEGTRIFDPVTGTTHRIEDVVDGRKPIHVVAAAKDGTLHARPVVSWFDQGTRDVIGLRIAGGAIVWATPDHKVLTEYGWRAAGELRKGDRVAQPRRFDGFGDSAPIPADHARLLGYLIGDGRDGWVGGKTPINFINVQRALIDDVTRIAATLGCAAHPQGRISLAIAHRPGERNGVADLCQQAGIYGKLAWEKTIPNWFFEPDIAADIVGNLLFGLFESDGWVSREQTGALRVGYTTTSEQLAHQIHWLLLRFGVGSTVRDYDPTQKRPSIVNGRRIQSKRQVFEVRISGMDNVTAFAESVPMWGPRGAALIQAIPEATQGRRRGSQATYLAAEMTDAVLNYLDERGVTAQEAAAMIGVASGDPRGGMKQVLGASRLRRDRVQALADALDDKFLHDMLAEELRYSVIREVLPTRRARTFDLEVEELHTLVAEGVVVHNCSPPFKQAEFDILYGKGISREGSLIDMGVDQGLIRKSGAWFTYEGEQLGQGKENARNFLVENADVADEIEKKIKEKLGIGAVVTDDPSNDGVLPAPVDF
Mtb H37Rv: M. tuberculosis H37Rv growth inhibitors, H37Rv strain (AID 1626) | M. tuberculosis H37Rv growth inhibition; higher % means a stronger effect | hit rate 0.95% among 220,000 | inhibition, % at 10 µM, or IC50 in µM where a hit was titrated;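 active = confirmed in a dose series; inconclusive = inhibition above 80% but not taken into the dose series; inactive = below 80% or under 30% at every dose of the series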;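 note: bacteria incubated seven days before Alamar blue readout; 0% = bacteria only wells and 100% = bacteria with antibiotic wells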
YopH PTP inh: blocks Yersinia enterocolitica YopH tyrosine phosphatase | fluorescence Ex485/Em525 | inhibition, %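 (about 10 µM by stock and volumes)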 | hit rate 0.16% among 140,000 | AID 898;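 active = inhibition of 50% or more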;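 note: controls were vehicle for no effect and minimum signal wells for full effect; inactives centre near -20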
Mtb betalactam: beta-lactam sensitization of Mtb H37Rv. inhibition, % at 25 µM. M. tuberculosis H37Rv growth with meropenem, percent inhibition; hits of this screen are not shown here. hit rate 0.27% among 330,000;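 active = about 74% or more and at least 40 points above the plate without the antibiotic, then above 30% in a dose series; inconclusive = first-round hits that could not be retested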;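 note: growth measured after seven days incubation then overnight dye step; 0% = bacteria only wells and 100% = bacteria with antibiotic; twin plates without the antibiotic show which effects depend on it; some results filed as inactive read as strong as hits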
Arbovirus anti: blocks arbovirus infection | arbovirus infection cell-based antiviral screen | inhibition, % at 10 µM | hit rate 0.37% among 200,000 | AID 1251;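 active = inhibition from about 30%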;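 note: bluetongue infection of BSR cells; cell survival read as ATP light after 72 h; 0% = infected wells without compound and 100% = uninfected wells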
Starred values were filed as active, the others as inactive; ? = inconclusive; · = no result given. Some of the compounds tested, so the mix of outcomes need not match the whole.

canonical_smiles,RecA intein inh,Mtb H37Rv,YopH PTP inh,Mtb betalactam,Arbovirus anti
O=C(CCC1CCCCC1)Nc1ccccc1O,4.0,-1%,-12,3,12
COc1ccc(NS(=O)(=O)c2cccc(C(=O)N/N=C(\C)c3ccc(-n4ccnc4)cc3)c2)cc1,1.8,-3%,-15,0,5
O=C(Nc1ccc(Br)cc1)NC1CCCCCCC1,2.3,·,·,100,·
CC1=NN(C(C#N)c2ccc(F)cc2)C(c2ccccc2)C1 (stereo not given),1.6,·,·,3,·
CN(Cc1ccccc1)C(=O)COC(=O)c1cc(-c2ccc(Cl)s2)nc2ccccc12,-3.8,4%,-4,47,19
Cc1ccc2[nH]c3c(c2c1)CC/C(=C/c1ccccc1)C3=O,-0.9,-2%,5,0,-8
COC(=O)CC1C(=O)NCCN1C(=O)c1cc([N+](=O)[O-])ccc1Cl (stereo not given),-1.8,·,·,-3,·
CCOc1ccccc1NC(=S)N1CCN(c2ccccc2)CC1,2.2,·,·,2,·
O=C(Nc1ccc(F)cc1)c1ccccc1,-0.1,1%,1,4,17
Cc1ccc(-c2nnc(N)s2)cc1,-0.5,55%,-7,68,3
O=C1NC(=O)/C(=C\c2ccc(Br)o2)S1,6.0,·,·,3,·
C(=N\c1nc2ccccc2n1CCN1CCCCC1)/c1ccc2c(c1)OCO2,-4.7,3%,2,-1,11
COc1ccc(-c2cc(-c3ccc(OC)cc3)[nH]n2)cc1,11,1%,-6,99,-19
CCOC(=O)c1cc2c(=O)n3ccccc3nc2n(CCCOC)c1=NC(=O)c1ccncc1,-96,1%,·,-2,-12
O=C(NC1CCCC1)c1nc2c(nnn2Cc2cccc(Cl)c2)c(=O)[nH]1,1.1,-3%,-53,27,7
CCOC(=O)C1CCN(S(=O)(=O)CCNC(=O)c2ccc3c(c2)OCO3)CC1,-2.8,·,·,1,·
COc1ccc2[nH]c(C)c(CCN(Cc3cccs3)C(=S)Nc3ccccc3OC)c2c1,12,17%,-10,-4,14
COc1ccc(Cl)cc1NC(=O)CN(C)C(C)C(=O)NCC1CCCCC1 (stereo not given),·,-4%,-40,6,-4
CCOc1ccccc1NC(=O)CN1CCN(C(=O)C2CCCO2)CC1 (stereo not given),-2.3,·,·,-4,·
Cc1ccc(-n2c(SCC(=O)NNC(=S)Nc3ccccc3)nc3ccccc3c2=O)cc1,-0.3,1%,-30,-8,-3
C/C(=N\NC(=O)C(N)=O)c1ccc(O)cc1O,-9.9,0%,·,-4,-18
Cc1ccc(Cl)cc1N1CCN(C(=O)CSc2ccsc2[N+](=O)[O-])CC1,4.8,0%,-19,-4,-6
Cc1nc(CN2CCCCC2)cc(=O)[nH]1,3.0,0%,·,2,4
CN(C)CCN1C(=O)c2oc3ccc(Cl)cc3c(=O)c2C1c1cccc(Br)c1 (stereo not given),5.1,-6%,36,2,13
CC(C)(C)NS(=O)(=O)c1ccc(OCC(=O)N2CCN(Cc3ccccc3)CC2)cc1,-4.0,-1%,·,-11,3
COc1cc(C)ccc1OCCOc1c(C)cccc1Cl,11,·,-6,87,6
COc1ccccc1CNC(=O)C(=O)NCC1OCCN1C(=O)c1cccs1 (stereo not given),-2.8,-13%,-4,0,-5
COc1ccc(S(=O)(=O)N2CCCCC2)cc1NC(=O)C1COc2ccccc2O1 (stereo not given),12,·,·,-5,·
O=C(CSc1nnc(-c2ccccn2)o1)Nc1cccc(Cl)c1,-0.2,·,·,-8,·
O=C(NCCc1ccccc1)/C(=C\c1ccc([N+](=O)[O-])cc1)NC(=O)c1ccco1,1.8,·,·,5,·

4 entries out of the list, arranged by molar mass, ascending:
canonical_smiles,RecA intein inh,Mtb H37Rv,YopH PTP inh,Mtb betalactam,Arbovirus anti
Cc1nc(CN2CCCCC2)cc(=O)[nH]1,3.0,0%,·,2,4
COc1cc(C)ccc1OCCOc1c(C)cccc1Cl,11,·,-6,87,6
O=C(CSc1nnc(-c2ccccn2)o1)Nc1cccc(Cl)c1,-0.2,·,·,-8,·
COc1ccc(S(=O)(=O)N2CCCCC2)cc1NC(=O)C1COc2ccccc2O1 (stereo not given),12,·,·,-5,·

The main list resumes with the two entries that preceded the break.
canonical_smiles,RecA intein inh,Mtb H37Rv,YopH PTP inh,Mtb betalactam,Arbovirus anti
O=C(CSc1nnc(-c2ccccn2)o1)Nc1cccc(Cl)c1,-0.2,·,·,-8,·
O=C(NCCc1ccccc1)/C(=C\c1ccc([N+](=O)[O-])cc1)NC(=O)c1ccco1,1.8,·,·,5,·
O=C1OCCN/C1=C\C(=O)c1ccc(Cl)cc1,·,-11%,·,14,·
CC(=O)N1CCc2c(sc(NC(=O)CCS(=O)(=O)c3ccc(C)cc3)c2C(N)=O)C1,-1.9,·,·,1,·
Cc1cc(C)c(NC(=S)NCC2CCN(C(C)c3ccccc3)C2)c(C)c1 (stereo not given),1.0,3%,·,-9,12
COc1cc(C)ccc1OCc1cc(C(=O)N2C[C@H]3CC[C@H]2C3)no1,-1.9,·,·,-4,·
COc1ccccc1N1CCN(C(=O)CCC(=O)N2CCN(c3ccc(F)cc3)CC2)CC1,-1.7,·,·,-12,·
Cn1cc(CN2CCN(Cc3ccc4c(c3)OCO4)CC2)c(-c2ccccc2F)n1,-0.9,0%,·,-6,-7
CCn1ccnc1CNC(=O)c1cc(COc2ccc(F)cc2F)on1,0.5,13%,·,7,4
CCOc1c(O)ccc(C2NC(=O)NC(C)=C2C(=O)OC)c1[N+](=O)[O-] (stereo not given),-0.4,0%,·,-3,0
Cc1ccc(C(=O)COC(=O)CNC(=O)c2cccs2)cc1C,1.1,-4%,·,-4,-3
COC(=O)c1sc(NC(=S)NC(=O)c2cccc(C)c2)nc1C,1.5,2%,-26,5,-5
CCOC(=O)c1cnc2ccc(OC)cc2c1NCc1ccccc1,8.7,21%,-9,16,-7
CC1CCCC(C)N1CCCNC(=O)c1ccc2nc(N3CCOCC3)sc2c1 (stereo not given),0.4,·,·,-1,·
CC(C)[C@H](NC(=O)c1ccc(F)cc1)C(=O)OCC(=O)NC(=O)c1cccn1C,2.3,9%,-28,-3,-1
Cc1cc2c(n1-c1ccc(C(N)=O)cc1)CC(C)(C)CC2=O,0.5,-1%,-4,-22,-4
CCOC(=O)C1(Cc2cccc(Cl)c2)CCCN(C(=O)c2cn[nH]c2)C1 (stereo not given),1.3,·,·,?,·
COC(=O)c1ccc(C23CC4(C2)[C@H](CN(Cc2ccc(-c5ccccc5)cc2)[C@@H]4c2ccccc2)C3c2ccc(Cl)nc2)cc1 (stereo not given in full),4.9,1%,·,5,·
C=CCOc1cccc(/C=N/NC(=O)CN2CCCCC2)c1,0.5,·,·,0,·
Cc1cc(C(=O)CN2C(=O)NC3(CCCc4sccc43)C2=O)c(C)n1-c1ccc(Cl)cc1 (stereo not given),-1.4,6%,-35,8,15
COC(=O)/C=C1\SC(=Nc2ccccc2)NC1=O,-0.5,-4%,-18,5,11
O=C(CN1CCN(c2ccccn2)CC1)Nc1cccc(S(=O)(=O)N2CCCC2)c1,-4.7,-5%,·,-1,8
O=C(NCCS(=O)(=O)N1CCN(c2ccccc2F)CC1)c1ccc2c(c1)OCO2,-2.2,·,·,2,·
COc1ccccc1-c1cc(C(F)(F)F)nc(S(=O)(=O)CCCC(=O)Nc2cccnc2Cl)n1,·,-6%,·,·,-36
Cc1ccccc1OCC(=O)N/N=C/c1cccn1C,1.6,15%,10,0,-1
O=C(NCc1ccc2c(c1)OCO2)c1cc2ccccc2oc1=O,1.8,-8%,-17,13,-4
COc1ccc(C2C(C(C)=O)=C(O)C(=O)N2c2ccc(Br)cc2)cc1 (stereo not given),0.6,·,·,10,·
Cc1nn(C)c2ncc(C(=O)c3cc(F)ccc3O)cc12,-5.5,-3%,-18,-6,1
CN1CCN(c2ccc(NC(=O)CSc3nnnn3-c3ccccc3F)cc2)CC1,1.9,·,·,1,·
COc1ccc(NC(=O)CSc2nnc3ccc(-c4ccncc4)nn23)cc1OC,-0.7,0%,·,-7,4
Clc1ccc(CNC2CCCC2)c(Cl)c1,3.7,0%,-12,2,2
COCCn1nnnc1SCC(=O)N1CCCCC1,-1.4,8%,-33,-4,5
Cc1ccccc1CNC(=O)c1ccc(Cl)c([N+](=O)[O-])c1,0.0,4%,-6,-2,2
CC(=O)N/C(=C\c1ccc(Br)s1)C(=O)O,-2.2,-6%,·,-2,-2
Cc1cc(NC(=O)CCl)nn1C,3.4,54%,·,93,11
O=C(Nc1cccc(Cl)c1)OCc1cn(-c2ccc(Cl)cc2)nn1,4.3,·,-44,-2,-11
CCC(=O)Nc1nnc(S(=O)(=O)N2CCCC2)s1,-3.4,·,·,-7,·
CCCC(=O)NC(=S)Nc1ccc(CN2CCOCC2)cc1,-2.4,3%,·,-3,5
O=C1CN(C(=O)COC(=O)c2ccc(N3CCCCCC3)c([N+](=O)[O-])c2)c2ccccc2N1,8.6,2%,-28,-7,22
Cc1ccnc(N2C3CCC2CC(O)(c2ccccc2)C3)n1 (stereo not given),9.2,3%,·,5,3
CCCCSc1cc(=O)n(-c2ccccc2)nc1C(=O)OCC,-0.2,2%,-34,3,7
COc1ccc(OC)c(C(=O)NC(CC(N)=O)c2ccc(NCc3ccccn3)c([N+](=O)[O-])c2)c1 (stereo not given),0.2,·,·,-6,·
Nc1nc(CSC(=S)N2CCCCC2)nc(Nc2ccccc2)n1,-4.9,3%,·,4,8
c1ccc(OCCOCCN2CCN(C(c3ccccc3)c3ccccc3)CC2)cc1,7.8,12µM*,-15,90,-18
CC(C)(C)NC(=O)CN(C(=O)Cn1nnc(-c2ccc(Cl)cc2)n1)C1CCN(Cc2ccccc2)CC1,-1.1,·,-8,-6,-37
c1ccc(-c2csc(-c3ccncc3)n2)cc1,3.0,4%,·,25,0
COc1cccc(C(=O)NNC(=O)C(=O)Nc2ccc(C)c(Cl)c2)c1,1.6,·,·,98,·
OCC(CO)(CO)NC(=S)Nc1cc(Cl)cc(Cl)c1,3.4,-11%,·,-13,·
O=C(Nc1ccc(F)cc1)Nc1nnc(COc2ccccc2F)s1,1.5,1%,·,2,2
C/C(=N\Nc1ccc([N+](=O)[O-])cc1)c1ccc2c(c1)OCO2,-3.9,59%,·,3,-8
CCCCNC(=O)CNC(=S)N(Cc1cc(OC)c(OC)c(OC)c1)C1CCCC1,0.8,-2%,-33,-1,-1
COc1ccc(C(O)c2nc3ccccc3s2)cc1 (stereo not given),-0.1,-3%,-40,1,-5

Next part:
canonical_smiles,RecA intein inh,Mtb H37Rv,YopH PTP inh,Mtb betalactam,Arbovirus anti
O=C(CCNC(=O)c1ccco1)Nc1ccc(OC(F)F)cc1,0.6,·,·,-10,·
C=C(C)c1ccc(C(C)(C)NC(=O)NCc2ccco2)cc1,3.2,4%,-8,16,-5
CC(=O)c1sc(NC(=O)COc2ccc(Cl)cc2C)nc1C,-0.5,·,·,-2,·
CC(SCc1nc2sc3c(c2c(=O)[nH]1)CCCC3)C(=O)Nc1ccccn1 (stereo not given),3.7,·,·,0,·
O=C(CSc1nnc2n1CCCN2)c1ccc(Cl)cc1,0.8,-7%,2,1,0
CCN(C(=O)Cc1ccc(NC2=NC3CS(=O)(=O)CC3S2)cc1)c1ccccc1 (stereo not given),-2.1,·,·,8,·
C=CCNC(NC(=O)c1ccccc1)(C(=O)OCC)C(F)(F)F (stereo not given),-3.9,3%,-41,6,7
O=C(NCCCN1CCCCCC1)C1CC(=O)N(CCc2ccccc2)C1 (stereo not given),-1.3,-11%,-37,-14,10
COc1cccc(C2=NOC(C(=O)Nc3cccc(C(C)=O)c3)C2)c1OC (stereo not given),-2.7,1%,-3,2,-2
Cc1ccccc1S(=O)Cc1ccc(C(=O)N2CCN(C(=O)c3ccco3)CC2)o1 (stereo not given),-1.2,·,·,3,·
CCn1c(CNC(=O)c2ccco2)nnc1SCC(=O)c1ccccc1,·,-6%,·,-6,0
COc1ccc(C(=O)Nc2ccc(S(=O)(=O)Nc3onc(C)c3C)cc2)cc1OC,0.4,8%,-34,18,8
O=C(Nc1cccc2ccccc12)N1CCN(c2ncccn2)CC1,0.4,-1%,·,1,-1
O=c1cc(C(Cl)(Cl)Cl)oc2c1ccc1ccccc12,2.1,1.1µM*,-27,100,-36
CCOC(=O)c1cc(C#N)c(N2CCOCC2)nc1-c1ccccc1,-0.9,8%,·,16,-2

Bioassay records as filed in PubChem.
